Anthrax LT inh: anthrax lethal toxin internalization inhibition; Cells, anthrax lethal toxin internalization, FRET ratio (460/530); Potency, µM (series often up to 40 µM), for the others: at the highest dose activity change, negative = inhibition, actives largely listed as inhibitors; 0.67% of 70,000 active; AID 912; active = well fitted falling ratio curve with the 530 nm signal flat; inconclusive = other ratio curves, or a change in one channel alone; inactive = flat curves in the ratio and both channels; the % refers to the ratio; note: % is set by controls: 0 for no effect and ±100 for the full control effect; nearly all actives have a fitted effect of over 50% in size; tested in ME-180 cells; beta-lactamase reporter
SmPrx2 inh: Schistosoma mansoni Prx2 inhibition. 0.07% of 65,000 active. S. mansoni Prx2 activity coupled to TGR/GSH (TGR is thioredoxin glutathione reductase), NADPH fluorescence loss, qHTS; some inactives read as strong as hits. Potency, µM; active means full or partial inhibition curve with a strong effect at the top dose; inconclusive means weaker partial or single-point curve; inactive means no accepted curve; note: series up to 57 µM; many of its hits are not listed in these tables
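Activity is read as the drop in NADPH fluorescence (365/450 nm), recorded every 30 sec for 8 min after H2O2 addition. Prx2 is coupled to TGR-driven NADPH oxidation through glutathione, in phosphate buffer pH 7.4.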
* hit, by the source's call; ? = inconclusive; . = not tested or not shown; & = joins results of further samples; [ ] = dose if it differs, or a comment. Potency is the fitted concentration of half-maximal effect. These rows are one share of the data. The share of hits here may be higher or lower than overall.

SMILES	Anthrax LT inh	SmPrx2 inh
COC(=O)Cc1[nH]nc2c1C(C1C=CCCC1)C(C#N)=C(N)O2 (centres undefined)	?	>57
CCN1CCN(CCCNC(=O)c2csc3c2CCCCC3)CC1	0.6%	>57
Cc1cccc(CCNC(=O)C2CCCN(S(=O)(=O)c3cccc4nsnc34)C2)c1 (centres undefined)	-10.4%	>57
CCNC(=O)C(C)Sc1ccc(Cl)cc1 (centres undefined)	-5.4%	>57
Cc1n[nH]c(C)c1S(=O)(=O)N1CCCCCC1	-6.9%	>57
c1ccc(Nc2ncncc2-c2ccc3c(c2)OCO3)cc1	?	>57
Nc1cc(Cl)ccc1N1CCOCC1	-4.0%	>57
CCOC(=O)C1=C(C)N=C2SC(C)C(=O)N2C1/C=C/c1ccccc1OC (centres undefined)	-4.4%	>57
Cc1ccccc1CNc1nc(N)n(-c2ccccc2)n1	-6.1%	>57
CCOC(=O)N1CCN(C(=O)c2cc3cc(Br)ccc3oc2=O)CC1	2.2%	>57
Cc1ccc(S(=O)(=O)N2CCCC2C(=O)NC2CCCCC2)cc1 (centres undefined)	-8.5%	>57
Cc1cc(C)n(S(=O)(=O)c2cc(C)c(C)cc2C)n1	-17.7%	>57
O=C1C2C3C=CC(C3)C2C(=O)N1c1cccc(-c2nc3ccccc3o2)c1 (centres undefined)	8.6%	.
CC(C)n1cc2c3c(cccc31)[C@@H]1C[C@H](C(=O)O[C@@H](C)[C@H](C)O)CN(C)[C@H]1C2	?	>57
COc1ccc(OC)c(C2=NOC(C(=O)NCc3ccccn3)C2)c1 (centres undefined)	9.2%	.
O=C(CSc1nnc2ccccn12)NCc1cccs1	-5.8%	>57
COCCn1c(=O)c(CCc2ccccc2)nc2cncnc21	3.6%	>57
CC12CN3CC(C)(CN(C1)C3c1ccc(Cl)cc1Cl)C2=O (centres undefined)	10.4%	>57
CCOc1ccc(N=C(NC#N)SC)cc1	14.4%	>57
CCN(CC(=O)N1CCN(C)CC1)S(=O)(=O)c1ccc(Cl)cc1	18.9%	>57
COC(=O)[C@@H](NC(=O)NC(C)CCc1ccccc1)C(C)C (some centres undefined)	-3.9%	>57
COc1cccc(C(=O)NC2CC3CCCC(C2)N3CC(=O)Nc2ccccc2)c1 (centres undefined)	-2.7%	>57
CCCN=C(N)/C(C(=O)OCC)=C(\O)c1ccc(OC)cc1	8.6%	>57
O=c1c2[nH]c3ccccc3c2ncn1CCN1CCOCC1	-8.6%	>57
O=C(O)C1CC(=O)N(c2ccc(OCc3ccccc3Cl)cc2)C1 (centres undefined)	-21.1%	>57
CCc1cccc(NC(=O)CN2C(=O)NC3(CCCCCCC3)C2=O)c1	-11.9%	>57
CCCc1[nH]nc2c1C(c1ccc(OCCN3CCOCC3)c(OCC)c1)C(C#N)=C(N)O2 (centres undefined)	-2.6%	>57
Fc1ccc(-c2nnc(CSc3nnc(-c4ccc5c(c4)OCO5)o3)o2)cc1	-1.2%	>57
O=[N+]([O-])c1ccc(Cl)c(Cl)c1Cl	-1.1%	.
COCCn1c(=O)c(-c2cccc(C#N)c2)nc2cnc(N3CCNCC3)nc21	?	>57
CCn1c(COc2ccccc2)nnc1SCC(=O)C(C)(C)C	-8.9%	>57
O=C(CN1C2=NCCN2c2ccccc21)c1ccc2c(c1)OCO2	-13.9%	>57
O=C(c1cc2nc(-c3ccc(F)cc3)cc(C(F)(F)F)n2n1)N1CCCC1	-3.6%	.
COc1ccc(C)cc1NC(=O)c1ccoc1C	7.5%	.
Cc1ccc2c(c1)NC(=O)C(N1CCOCC1)(C(F)(F)F)O2 (centres undefined)	13.0%	>57
COc1ccc(CCNC(=O)CCSc2nc(-c3ccco3)cc(C(F)(F)F)n2)cc1OC	-7.9%	.
COC(=O)C1(C)C=CCN1C(=O)c1ccccc1 (centres undefined)	1.9%	.
CCOC(=O)CN(C(=O)CSc1nnc(C)n1-c1ccccc1)c1ccccc1	20.3%	>57
CS(=O)(=O)N1CCC(C(=O)Nc2ccc(F)cc2F)CC1	-4.9%	>57
Cc1cccc(NCN2C(=O)c3ccncc3C2=O)n1	20.9%	>57
CCN(C(=O)COc1cc(=O)n(CC)c2ccccc12)c1cccc(Cl)c1	2.7%	>57
Cc1c(C)n(C(=O)CSc2ncn[nH]2)c2ccccc12	-4.1%	>57
COc1ccc2cc1Oc1ccc(cc1)C[C@H]1c3cc(c(OC)cc3CCN1C)Oc1c(OC)c(OC)cc3c1[C@@H](C2)N(C)CC3	?	>57&>57&>57
CCOC(=O)c1c(C)[nH]c(C)c1C(=O)CSc1nnc(-c2ccco2)n1Cc1ccccc1	-9.8%	>57
COc1ccc(CNC(=O)C2CCCN2S(=O)(=O)c2ccc(S(=O)(=O)N(C)C)cc2)cc1 (centres undefined)	?	>57
Nc1n[nH]c2c1C1(CCCCC1)Cc1ccccc1-2	?	>57
COc1ccccc1NC(=O)CCC(=O)O	?	>57
CC1CC(=O)c2cnc(NCc3ccco3)nc2C1 (centres undefined)	?	>57
COc1ccc(-n2c(COc3cccc(C)c3)nnc2SCC(=O)NCc2ccco2)cc1	-21.1%	>57
CS(=O)(=O)N1CCC(C(=O)N2CCc3ccccc3C2)CC1	-14.3%	>57
CCn1c(SCC(=O)Nc2ccccc2N2CCCCC2)nc2c1c(=O)n(C)c(=O)n2C	3.7%	>57
COC(=O)C1=C(C)N(c2ccc(C(=O)OC)cc2)C(=O)C1	10.8%	>57
O=C(Cn1nnc(-c2ccccc2NC(=O)c2cccs2)n1)Nc1ccccc1	-2.6%	>57
c1ccc2c(c1)CCN(CCCNc1nc3ccccc3n3cnnc13)C2	-13.2%	>57
CCOC(=O)N1CCN(C(=O)Nc2ccccc2Cl)CC1	0.7%	>57
CCOC(=O)CC1=C(C#N)C(c2cccnc2)C(C(=O)OCC)=C(N)O1 (centres undefined)	12.6%	>57
CCc1c(C(=O)Nc2cc(C)ccc2OC)[nH]c(C)c1C(C)=O	?	>57
COc1cc(NC(=O)c2cc3c(C)nc4ccccc4c3o2)cc(OC)c1OC	-5.5%	>57
CCOc1ccc(N2C(=O)c3cccnc3C2Nc2ccc(F)cc2)cc1 (centres undefined)	-19.6%	>57
O=C(CSc1nnc(CNc2ccc(F)cc2)n1Cc1ccco1)NC1CC1	2.4%	>57

Already shown: 15 of the compounds above.
SMILES	Anthrax LT inh	SmPrx2 inh
CCN(C(=O)COc1cc(=O)n(CC)c2ccccc12)c1cccc(Cl)c1	2.7%	>57
Cc1c(C)n(C(=O)CSc2ncn[nH]2)c2ccccc12	-4.1%	>57
COc1ccc2cc1Oc1ccc(cc1)C[C@H]1c3cc(c(OC)cc3CCN1C)Oc1c(OC)c(OC)cc3c1[C@@H](C2)N(C)CC3	?	>57&>57&>57
CCOC(=O)c1c(C)[nH]c(C)c1C(=O)CSc1nnc(-c2ccco2)n1Cc1ccccc1	-9.8%	>57
COc1ccc(CNC(=O)C2CCCN2S(=O)(=O)c2ccc(S(=O)(=O)N(C)C)cc2)cc1 (centres undefined)	?	>57
Nc1n[nH]c2c1C1(CCCCC1)Cc1ccccc1-2	?	>57
COc1ccccc1NC(=O)CCC(=O)O	?	>57
CC1CC(=O)c2cnc(NCc3ccco3)nc2C1 (centres undefined)	?	>57
COc1ccc(-n2c(COc3cccc(C)c3)nnc2SCC(=O)NCc2ccco2)cc1	-21.1%	>57
CS(=O)(=O)N1CCC(C(=O)N2CCc3ccccc3C2)CC1	-14.3%	>57
CCn1c(SCC(=O)Nc2ccccc2N2CCCCC2)nc2c1c(=O)n(C)c(=O)n2C	3.7%	>57
COC(=O)C1=C(C)N(c2ccc(C(=O)OC)cc2)C(=O)C1	10.8%	>57
O=C(Cn1nnc(-c2ccccc2NC(=O)c2cccs2)n1)Nc1ccccc1	-2.6%	>57
c1ccc2c(c1)CCN(CCCNc1nc3ccccc3n3cnnc13)C2	-13.2%	>57
CCOC(=O)N1CCN(C(=O)Nc2ccccc2Cl)CC1	0.7%	>57

Next part
SMILES	Anthrax LT inh	SmPrx2 inh
CCOCC(=O)N1CCc2ccccc21	-4.9%	>57
COC(=O)c1c(NC(=O)CCc2ccc(C)o2)sc(C)c1C	-23.9%	>57
CN(C)Cc1ccc(O)c(CCc2ccccc2)n1	-7.1%	>57
CCCN(CCC)CCNC(=O)CS(=O)Cc1nc(-c2ccc(C)cc2)oc1C (centres undefined)	11.1%	>57
COc1ccc(C(c2nnnn2Cc2ccccc2)N2CCN(C(=O)c3ccco3)CC2)cc1 (centres undefined)	5.5%	>57
c1ccc(OCc2nn3c(Cn4cnc5ccccc54)nnc3s2)cc1	?	>57
O=C(COC(=O)c1ccco1)Nc1ccc2c(c1)OCO2	-12.9%	>57
CCC1CCCCN1C(=O)Cn1c(=O)oc2ccccc21 (centres undefined)	7.9%	>57
Cc1cc(C)n2nc(CCc3nc4nc(C)cc(C)n4n3)nc2n1	-1.1%	>57
CCOC(=O)N1CCC(NC(=O)Cn2ncc3c4ccccc4n(C)c3c2=O)CC1	-0.6%	>57
CCN(CC)CCCNC1CCS(=O)(=O)C1 (centres undefined)	11.9%	>57
CCCCOc1cccc(C(=O)N(Cc2cccs2)C2CCS(=O)(=O)C2)c1 (centres undefined)	-14.2%	>57
CCn1c(CNc2ccc(F)cc2)nnc1SCC(=O)OC1CCCCC1	11.5%	>57
COC(=O)C(C)Oc1ccc2c3c(c(=O)oc2c1)CCCCC3 (centres undefined)	-16.4%	>57
COC(=O)c1cc(OC)c(OC)cc1NC(=O)c1ccc(Br)o1	?	.
CCOc1ccc(C(=O)N2CCCC2C(=O)O)cc1 (centres undefined)	0.8%	>57
CCOc1cc2[nH]c(=O)n(CC3CCC(C(=O)NC4CCCCC4)CC3)c(=O)c2cc1OCC (centres undefined)	9.6%	>57
CC(CC1C(C#N)=C(N)OC2=C1C(=O)CCC2)c1ccccc1 (centres undefined)	-8.5%	>57
CCCCNC(=O)c1ccc2c(c1)N(CC)C(=O)CS2	.	>57
COCCCN1Cc2cccc(C(=O)O)c2C1=O	0.4%	>57
Cc1ccc2c(c1)nnn2C1CCN(S(C)(=O)=O)CC1	-2.4%	>57
Cc1cc(=O)oc(C)c1C(=O)NCCC(C)C	.	>57
Cn1c2ccccc2c2c(C(=O)N3CCC4(CC3)OCCO4)cn(C3CCCCC3)c(=O)c21	-5.7%	>57
COc1ccccc1OCC(=O)NCCNC(=O)COc1ccccc1OC	15.0%	.
COCCn1nnnc1C(c1ccc(O)c(OC)c1)N1CCc2ccccc2C1 (centres undefined)	-17.3%	>57
CCCc1[nH]nc2c1C(c1ccc(Br)s1)C(C#N)=C(N)O2 (centres undefined)	-16.5%	>57
Cc1nc2cnc(Oc3cccc(Cl)c3)nc2n(C2CC2)c1=O	-4.3%	>57
O=S(=O)(NCC1CCN(S(=O)(=O)c2ccccc2)CC1)c1ccccc1	3.2%	>57
CCS(=O)(=O)N1CCC(C(=O)NCCCOC)CC1	15.5%	>57
CCCCOc1ccc(CSc2ncn[nH]2)cc1	?	>57
COc1ccc(CCNc2nc(N3CCOCC3)nc(N3CCOCC3)n2)cc1OC	-1.0%	>57
O=c1c2ccccc2nc2n1CCCCC2	3.3%	>57
CCOC(=O)c1ccccc1NC(=O)CSc1nnc(Cc2cccn2C)n1-c1ccc(C)cc1	?	>57
CC1CCN(S(=O)(=O)c2ccc(NC(=O)CSc3ncccc3C(=O)O)cc2)CC1	-9.2%	>57
COc1ccccc1CN1CCC2(CC1)CCN(C(=O)c1cc(C(F)(F)F)cc(C(F)(F)F)c1)CC2	?	>57
CN[C@@H]1[C@H](O[C@H]2[C@@H](O[C@@H]3[C@@H](O)[C@@H](O)[C@@H](N=C(N)N)[C@@H](O)[C@@H]3N=C(N)N)O[C@@H](C)[C@]2(O)CO)O[C@H](CO)[C@@H](O)[C@@H]1O	-8.9%[3.58 µM]	>57
CC(N=c1ccccn1C(=O)Nc1ccc(Cl)cc1)c1ccco1 (centres undefined)	-9.7%	>57
CC(C)[C@H](NC(=O)OCc1ccccc1)C(=O)N[C@H](C=O)Cc1ccccc1	-24.4%	>57
Cc1ccc(CC2CC(=O)N(CCc3ccc4c(c3)OCO4)C2=O)cc1 (centres undefined)	?	.
CS(=O)(=O)N1CCCC(C(=O)N2CCOCC2)C1 (centres undefined)	-2.8%	>57
COCCn1c(=O)c(-c2ccc(F)cc2)nc2cnc(N(C)C)nc21	?	>57
Cc1ccccc1CSc1nnc(C)n1N	-8.2%	>57
CCN1CCN(Cc2ccc(NC(=O)Nc3ccc(SC)cc3)cc2)CC1	4.2%	>57
N#CCCN1CCN(S(=O)(=O)c2ccc(S(=O)(=O)N3CCOCC3)cc2)CC1	4.6%	>57
CCOC(=O)Cn1cc(C(=O)OC)c2ccccc21	-0.3%	>57
Cc1ccc2oc(=O)n(CCCOc3ccccc3)c2c1	-10.6%	>57
CO[C@H]1COC(=O)[C@@H](C)COC(=O)[C@@H](OCc2ccccc2)/C=C\[C@@H]1C	?	.
Cc1ccc(N(CC(=O)N2CCN(c3ccc(F)cc3)CC2)S(=O)(=O)c2c(C)nn(C)c2C)cc1	-7.8%	>57
O=C(NCc1ccco1)c1ccc2c(=O)n(CC3CCCO3)c(=S)[nH]c2c1 (centres undefined)	-6.9%	>57
Cc1nc2ccccc2c(=O)n1NC(=O)Nc1ccccc1	3.3%	>57
CCOc1cc(C)c(Cl)cc1S(=O)(=O)N(CC)CC	-7.1%	>57
COc1ccc(C(=O)CN2C3=NCCCN3c3ccccc32)cc1OC	-9.3%	>57

Assay outcomes (PubChem BioAssay)
